Biofilm kill mix – clotrimazole potentiators killing C. albicans biofilm, primary screen, 4-compound mixtures | inhibition, % at 7.6 µM | C. albicans biofilm persisters + clotrimazole, fluorescence viability; primary screen in compound mixtures of four per well | actives 0.02% (n = 120,000);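 active means inhibition above 30.3% in the primary screen of four-compound pools, then above 30% when the compound was retested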;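 further: compounds exposed to preformed 24 h biofilms for 48 h; the number belongs to the whole pool; some results filed as inactive read as strong as hits; inactives centre near 12; 0% = biofilm with clotrimazole alone and 100% = kill control; retested singly at about 60 µM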
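Test system: C. albicans CAF4-2 wild-type biofilms; buffer or medium: RPMI/MOPS medium, pH 7.0; schedule: 24 h biofilm formation, then 48 h compound exposure, 37 °C; detection: Alamar Blue fluorescence; measure: percent inhibition of biofilm viability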
Active calls of the source: *.

nr	SMILES	Biofilm kill mix
1	Cc1cccc(NC(=O)Nc2ccc([N+](=O)[O-])cc2)n1	6
2	CCCCNCC1C(Oc2ccc(Cl)cc2)C(=O)N1c1ccccc1C (stereo unspecified)	12
3	O=c1cc(-c2ccccc2Cl)oc2cccc(O)c12	7
4	COc1ccc2c(c1)SCC/C2=C\CN1C(=O)CCC1=O	7
5	Cc1ccc(NC(=O)NCc2ccc3c(c2)OCO3)c(C)c1	13
6	O=C(NCc1ccccc1)C1=C[C@H](c2ccc(Br)cc2)C[C@H](OCc2ccc(CO)cc2)O1	12
7	CC1Cc2ccccc2N1C(=O)COc1ccc2c(c1)OCO2 (stereo unspecified)	19
8	Cc1ccc(S(=O)(=O)N2CCC(C(=O)NNC(=O)c3ccccc3)CC2)cc1	6
9	Cc1cc(C)c2c(C)c(C(=O)NCc3ccncc3)oc2c1	11
10	Cc1cn(S(=O)(=O)c2ccccc2[N+](=O)[O-])cn1	6
11	CC(=O)Nc1ccc(NC(=O)c2ccc(NS(=O)(=O)c3cc(C(C)(C)C)cc(C)c3C)cc2)cc1	11
12	COC(=O)c1cc2c(C)nn(C)c2s1	21
13	CC(O)CNc1nc(Cl)c(C#N)s1 (stereo unspecified)	1
14	COc1cc(/C=C2\CC/C(=C\c3ccc(OCCO)c(OC)c3)C2=O)ccc1OCCO	4
15	Nc1nc(N2CCN(C(=O)c3ccco3)CC2)nc2ccc(Br)cc12	11
16	CCOc1cc(C=C(C#N)C#N)ccc1Oc1ccc([N+](=O)[O-])cn1	-1
17	O=C(COC(=O)c1cccc(Cl)c1)Nc1cc(Cl)ccc1Oc1ccccc1	21
18	Clc1cccc(-c2ccc(C=Nc3ccc(N4CCOCC4)cc3)o2)c1	12
19	Cc1cc2c(OCC(O)CN3CCCC3)cccc2[nH]1 (stereo unspecified)	9
20	Cc1ccc2c(c1)C(=O)CCCCC(=O)N2	11
21	O=C(CCc1ccccc1)n1nc(-c2ccccc2)nc1NCc1ccco1	15
22	Cc1cccc(C2c3[nH]c4ccccc4c3CCN2C(=O)c2cc(C(C)C)nc(N)n2)n1 (stereo unspecified)	14
23	CCOc1ccc(S(=O)(=O)Nc2ccc(C(=O)N/N=C/c3c(C)nn(-c4ccccc4)c3N3CCCC3)cc2)cc1	12
24	NNc1nnc2c3cc(F)ccc3n(Cc3ccccc3)c2n1	13
25	Cn1cnc(S(=O)(=O)Nc2cc(-c3ccc(Cl)cc3)nn2C)c1	16
26	COC(=O)c1ccc(NC(=O)C(=O)N2CCN(C(=S)Nc3ccc(C)cc3)CC2)cc1	19
27	CCOC(=O)C1CCCN(CC(=O)c2c[nH]c3ccc(C)cc23)C1 (stereo unspecified)	11
28	CS(=O)(=O)N(Cc1ccc(C(=O)NN=C2CCCCCC2)cc1)c1ccccc1	13
29	CCOC(=O)C1=C(C)NC(=O)NC1c1ccc(N2CCC(c3ccccc3)=N2)cc1 (stereo unspecified)	3
30	COC(=O)c1[nH]c(C)c(/C(O)=C2\C(=O)C(=O)N(CCN3CCOCC3)C2c2ccc(C)o2)c1C (stereo unspecified)	21
31	CC1(C)Cc2ccccc2-c2c1c(=O)n(Cc1ccccc1)c1nnnn21	16
32	CN(C)c1nnnn1-c1ccc(OC(F)(F)F)cc1	16
33	O=S1(=O)CC2N=C(N(Cc3ccc(F)cc3Cl)c3ccccc3F)SC2C1 (stereo unspecified)	5
34	Cc1ccc(/C=N/NC(=O)NC2CCCCC2)o1	5
35	COc1ccc(NC(=O)CSc2nnc(C3CC3)n2C)cc1	-1
36	COC(C[C@H](O)C[C@H](O)[C@H](C)OCc1ccccc1)OC	21
37	Cc1ccc(-c2ccc(C)c(N)c2C)c(C)c1N	13
38	CCN=C1NN=C(c2cc(C)n(CCc3ccccc3)c2C)CS1	29
39	CCc1ccc(C(=O)COC(=O)c2ccc(Cl)nc2)cc1	0
40	CCOC(=O)C1(C)C=C(Nc2ccc(C)cc2)C(=O)N1c1ccc(C)cc1 (stereo unspecified)	8
41	Cc1ccc(C[n+]2cc(-c3ccc(Cl)cc3)n3c2CCC3)cc1	16
42	Cc1nnc(SCC(=O)Nc2nc(-c3ccc(F)cc3)cs2)[nH]c1=O	9
43	Cc1cc(NC(=O)CSc2nc3ccsc3c(=O)n2NC(=O)c2ccccc2)no1	13
44	Nc1ccc(N2CCN(CCCCN3C(=O)C4CCCN4C3=O)CC2)cc1 (stereo unspecified)	5
45	Cc1ccc(-c2nc(C=Nc3ccccc3)c(O)o2)cc1	14
46	C/C(=N\NC(=O)Cc1cccn1C)c1ccco1	13
47	CCOC(=O)Cc1csc(NC(=O)/C=C/c2ccco2)n1	15
48	COc1ccc(NC(=O)CCS(=O)(=O)c2ccccc2Cl)cc1S(=O)(=O)Nc1ccc(Cl)cc1	-8
49	CCOC(=O)c1sc(Nc2nc(C)cc(C)n2)nc1C	13
50	Cc1cccc(CSc2nnc(C)c(=O)n2N)c1	2
51	Cc1ccc(NC(=S)NC(NC(=O)c2ccccc2)C(Cl)(Cl)Cl)c(C)c1 (stereo unspecified)	12
52	Cc1ccc(-c2[nH]c(=S)[nH]c(=O)c2C#N)cc1	16
53	Cc1ccc(CNC(=S)N2CCOCC2)cc1	11
54	CCOc1ccc(NC(=O)CN(Cc2ccccc2)S(C)(=O)=O)cc1	3
55	OCCC1CN(Cc2cccc3c2OCO3)CCN1Cc1ccccc1 (stereo unspecified)	8
56	CS(=O)(=O)c1ccc2nc(NC(=O)c3ccc(N4CCCC4=O)cc3)sc2c1	34
57	O=C(N/N=C/c1ccc([N+](=O)[O-])s1)c1cccnc1	15
58	C/C(=N\NC(=O)CNc1cccc(Cl)c1C)C1CC1	5
59	O=C(N/N=C/c1ccc(Br)o1)c1cccnc1	16
60	NNC(=O)CN1CCN(c2ncc(C(F)(F)F)cc2Cl)CC1	10

Fetched one by one from the entries so far (3):
nr	SMILES	Biofilm kill mix
38	CCN=C1NN=C(c2cc(C)n(CCc3ccccc3)c2C)CS1	29
48	COc1ccc(NC(=O)CCS(=O)(=O)c2ccccc2Cl)cc1S(=O)(=O)Nc1ccc(Cl)cc1	-8
32	CN(C)c1nnnn1-c1ccc(OC(F)(F)F)cc1	16

Later entries
item	Structure	Biofilm kill mix
61	CCCCCCCCCCCC(=O)c1c(O)cccc1O	20
62	COc1ccc2cc(-c3[nH]ncc3CNCCn3nc(C)cc3C)ccc2c1	9
63	CC1=Nc2ccccc2N=C(NC(=O)c2ccccc2)C1c1ccc(Cl)cc1 (stereo unspecified)	23
64	COc1ccccc1Sc1nc(-c2ccccn2)ncc1OC	16
65	CCN(CC)C(=O)CSc1nnc([C@@H](N)Cc2ccccc2)o1	10
66	CCN(CC)CCN(C)c1ccc(N2C(=O)C3CC=CCC3C2=O)cc1[N+](=O)[O-] (stereo unspecified)	7
67	O=C(NCc1cccnc1)C(=O)NC1CCCCC1	1
68	O=C(N/N=C/c1sc(N2CCOCC2)nc1-c1ccccc1)c1ccccc1Cl	15
69	Cc1ccccc1-n1cc(CNCc2c(C(=O)N(C)C)nc3ccc(Cl)cn23)cn1	26
70	CCOc1ccccc1NC(=O)C(OC(=O)c1ccc(O)cc1)c1ccccc1 (stereo unspecified)	16
71	O=C(Cc1ccc(Cl)cc1)Nc1cccc2ncccc12	5
72	CCCC(=O)N(CC(=O)Nc1sc(C)c(C)c1C(N)=O)Cc1ccccc1	2
73	CNc1nnc(-c2ccc(C)cc2)c2ccccc12	31
74	CN(CC(=O)Nc1ccc(C#N)cc1)CC(=O)Nc1ccc(N2CCOCC2)cc1	14
75	CCN(CC)c1ccc(/C=N/N2CCN(c3ccccn3)CC2)cc1	8
76	NNC(=O)c1cccc(COCC(F)(F)C(F)F)c1	11
77	Cc1oc(-c2cccc(F)c2)nc1CN(Cc1ccccc1)C[C@@H]1CCC(=O)N1	-9
78	CCN(CC)c1ccc(/C=C2/C(=O)c3ccc(C(=O)O)cc3C2=O)cc1	16
79	O=C(N/N=C/c1c[nH]c2ccccc12)c1cccs1	10
80	COc1cc([N+](=O)[O-])ccc1NC(=O)Nc1nc2c(s1)CCCC2	7
81	CC(=O)n1c2c(c3ccccc31)OC(N)=C(C#N)C2c1cccc(Cl)c1Cl (stereo unspecified)	13
82	CN(C)c1ccc(/C=N/NC(=O)CSc2ccccn2)cc1	13
83	CC(=O)C1=C(O)C(=O)N(Cc2cccnc2)C1c1ccc(C(C)C)cc1 (stereo unspecified)	11
84	COc1ccccc1-c1cn[nH]c1-c1ccc(OCc2ccc([N+](=O)[O-])cc2)cc1O	20
85	COc1ccc(S(=O)(=O)N2CCOC2CNC(=O)C(=O)NCc2ccco2)cc1 (stereo unspecified)	15
86	O=C(CN(C(=O)Cn1nnc(-c2ccc(F)cc2)n1)c1ccc(F)c(Cl)c1)NCC1CCCO1 (stereo unspecified)	21
87	CCOC(=O)/C(C#N)=C/Nc1cc(OC)ccc1OC	8
88	CN(Cc1ccccc1)c1nnc(N)s1	1
89	CN(c1cccnc1)c1ncnc2[nH]ncc12	8
90	COc1ccc([N+](=O)[O-])cc1NC(=O)Nc1cccc(Cl)c1	8
91	O=C(/C=C/c1ccc(Cl)cc1)NCc1cccs1	10
92	COc1ccccc1NC(=O)c1ccc(NC(=O)c2cc3c(s2)CCC3)cc1	25
93	Cc1cccc(-n2c(C)cc(C)c(C#N)c2=O)c1	16
94	CCC(=O)c1ccc(N2CCN(C(=O)c3ccc(F)cc3)CC2)c(F)c1	18
95	COc1cc(NC(=O)COn2nnc3ccc(S(C)(=O)=O)cc32)cc(OC)c1	12
96	Nc1nc(N2CCOCC2)n[nH]1	14
97	COC(=O)c1cc(OC)c(OC)cc1NC(=S)N1CCN(C/C=C/c2ccccc2)CC1	11
98	Cc1[nH]n(-c2ccccc2)c(=O)c1N=Nc1ccc2c(c1)OCCO2	-3
99	Cc1ccccc1C(=O)Nc1ccc(C(=O)N/N=C/c2ccncc2)cc1	5
100	Cc1cnc(C(=O)OCc2ccc(COC(=O)c3cnc(C)cn3)cc2)cn1	12
101	COC(=O)c1sc(NC(=O)CSc2n[nH]c(N)n2)c(C(=O)OC)c1C	6
102	Cc1ccccc1-c1nnc(Cc2ccccc2)o1	1
103	CCOC(=O)C1=C(CS(=O)(=O)c2ccccc2)NC(=O)NC1c1ccc(OC)c(OC)c1 (stereo unspecified)	7
104	CCCCNC(=O)CCCCCn1c(=O)[nH]c2cc(C(=O)OC)ccc2c1=O	16
105	Cc1c(C(=O)Nc2ccc(Br)cc2)cnn1C	12
106	CNC(=S)N1CCN(CCNC2=CC(=O)CC(C)(C)C2)CC1	1
107	COC(=O)CSCC(=O)Nc1nnc(-c2cccc(C)c2)s1	16
108	C/C(=N\O)C1CCCCC1	3

Next part (6 carried over from the part before).
item	Structure	Biofilm kill mix
103	CCOC(=O)C1=C(CS(=O)(=O)c2ccccc2)NC(=O)NC1c1ccc(OC)c(OC)c1 (stereo unspecified)	7
104	CCCCNC(=O)CCCCCn1c(=O)[nH]c2cc(C(=O)OC)ccc2c1=O	16
105	Cc1c(C(=O)Nc2ccc(Br)cc2)cnn1C	12
106	CNC(=S)N1CCN(CCNC2=CC(=O)CC(C)(C)C2)CC1	1
107	COC(=O)CSCC(=O)Nc1nnc(-c2cccc(C)c2)s1	16
108	C/C(=N\O)C1CCCCC1	3
109	NNC(=O)c1ccc2[nH]c3c(c2c1)CCCC3	13
110	Cc1ccc(S(=O)(=O)N(C)CC(=O)OCC(=O)N2CC(=O)Nc3ccccc32)cc1	-3
111	CN(/N=C\c1ccc(O)c(O)c1)c1nc(-c2ccccc2)cc(-c2ccccc2)n1	13
112	COc1ccc(OCC2c3cc(OC)c(OC)cc3CCN2C(=O)C(C)C)cc1 (stereo unspecified)	12
113	Cc1cc(-c2ccccc2)nc(N2CCC(C(=O)NCc3ccccc3Cl)CC2)n1	8
114	Cn1c(N2CCOCC2)cc(=O)n(C)c1=O	11
115	O=C(CNc1cccc2ccccc12)c1ccc([N+](=O)[O-])cc1	25
116	O=C1NC2(CCCCCC2)C(=O)N1CCS(=O)(=O)Oc1ccccc1	9
117	COc1cc(NC(=O)CN2CCN(c3ccccc3F)CC2)c(C)cc1[N+](=O)[O-]	-4
118	COC(=O)c1ccc(C(=O)OC)c(NC(=S)N2CCN(C(=O)C3CCCO3)CC2)c1 (stereo unspecified)	29
119	COc1ccc(CCNS(=O)(=O)c2ccc(N3CCCC3=O)cc2)cc1	12
120	COC(=O)c1c(C)nn(-c2ccc(F)c(Cl)c2)c1-c1cc(C)on1	17
121	Cc1cc(C)n(-c2ccc(C(=O)Nc3cc(S(=O)(=O)N(C)C)ccc3Cl)cc2)n1	10
122	CSc1ccc(C#N)cc1NC(=O)c1ccccc1	-12
123	O=C1NC(=NCc2ccccc2)S/C1=C\c1ccccc1	9
124	Cc1c(-c2cc[n+]([O-])cc2)oc2ccc(Br)cc2c1=O	7
125	CCCCN1CNC(=S)N(c2ccc(C(=O)OCC)cc2)C1	10
126	Cn1c(N)c(C(=O)COC(=O)COc2ccccc2C#N)c(=O)n(C)c1=O	12
127	CCOC(=O)N1CCN(C(=O)CSCC(=O)Nc2nc(-c3ccc(Cl)s3)cs2)CC1	11
128	CN(C(=O)COC(=O)CNC(=O)c1sc2ccccc2c1Cl)c1ccccc1	10
129	N#Cc1cnn2c(N)c(-c3ccc(Cl)cc3)cnc12	15
130	O=C(Cn1cnc([N+](=O)[O-])c1)Nc1cc(Oc2ccc(Cl)cc2Cl)cc([N+](=O)[O-])c1	-6
131	FC(F)(F)c1cccc(-n2c(Cn3nnc4ccccc43)n[nH]c2=S)c1	8
132	S=c1nc(C23CC4CC(CC(C4)C2)C3)[nH][nH]1	5
133	CCOC(=O)COc1c(C(=O)OC)sc2ncccc12	12

3 structures out of the list, sorted by formula weight, high to low:
item	Structure	Biofilm kill mix
51	Cc1ccc(NC(=S)NC(NC(=O)c2ccccc2)C(Cl)(Cl)Cl)c(C)c1 (stereo unspecified)	12
73	CNc1nnc(-c2ccc(C)cc2)c2ccccc12	31
89	CN(c1cccnc1)c1ncnc2[nH]ncc12	8

Assay outcomes deposited in PubChem BioAssay by PCMD.

Not all compounds are listed (hit frequency here may not be typical).
